Assay outcomes as filed in PubChem BioAssay.
NPR1 antag: antagonists of human natriuretic peptide receptor Npr1. Potency, µM (highest dose often 46.3 µM), for inactives: top-dose activity change, negative = inhibition, most hits filed as inhibitors. 1.6% of 76,000 active. P16066. HEK293 hNpr1 GloSensor cGMP, ANP-stimulated luminescence; active = well fitted inhibition curve with a large enough effect; inconclusive = small, poorly fitted or top-dose-only effect; inactive = no such curve, though single readings can be large or run the other way;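 note: nearly all actives have a fitted effect of over 60% in size; nearly all hits also lower the signal before the agonist is added; a reference antagonist and vehicle were the controls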
Target sequence (P16066 whole entry, looked up): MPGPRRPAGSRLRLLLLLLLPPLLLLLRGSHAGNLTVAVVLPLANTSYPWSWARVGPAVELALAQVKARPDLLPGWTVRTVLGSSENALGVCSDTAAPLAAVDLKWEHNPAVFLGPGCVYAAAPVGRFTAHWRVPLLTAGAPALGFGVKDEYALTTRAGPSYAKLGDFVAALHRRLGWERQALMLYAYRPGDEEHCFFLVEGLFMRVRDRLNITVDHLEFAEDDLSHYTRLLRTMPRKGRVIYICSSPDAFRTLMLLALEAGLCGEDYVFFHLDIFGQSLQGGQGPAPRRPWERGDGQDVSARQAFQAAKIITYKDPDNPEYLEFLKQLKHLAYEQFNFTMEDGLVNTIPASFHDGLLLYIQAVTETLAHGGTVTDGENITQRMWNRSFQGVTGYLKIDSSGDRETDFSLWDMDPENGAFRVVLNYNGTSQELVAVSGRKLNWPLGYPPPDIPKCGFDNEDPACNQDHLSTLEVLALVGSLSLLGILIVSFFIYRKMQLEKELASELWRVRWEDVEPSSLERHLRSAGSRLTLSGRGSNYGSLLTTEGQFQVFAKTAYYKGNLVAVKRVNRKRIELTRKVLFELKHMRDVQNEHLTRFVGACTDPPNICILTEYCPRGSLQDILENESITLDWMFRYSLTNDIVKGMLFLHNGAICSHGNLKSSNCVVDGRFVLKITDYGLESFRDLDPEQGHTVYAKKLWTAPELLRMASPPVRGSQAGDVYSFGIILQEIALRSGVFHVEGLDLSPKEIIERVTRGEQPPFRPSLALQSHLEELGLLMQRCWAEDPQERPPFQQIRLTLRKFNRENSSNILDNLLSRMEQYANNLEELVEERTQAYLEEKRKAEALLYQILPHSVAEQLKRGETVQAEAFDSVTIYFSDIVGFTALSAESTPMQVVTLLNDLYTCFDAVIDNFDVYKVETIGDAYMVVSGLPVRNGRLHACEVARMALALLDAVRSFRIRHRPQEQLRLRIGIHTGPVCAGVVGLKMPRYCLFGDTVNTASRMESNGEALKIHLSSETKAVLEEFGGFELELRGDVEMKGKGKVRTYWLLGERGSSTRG
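HEK293 cells stably expressing human Npr1 and cGMP GloSensor pGS-40F, loaded 2 h with 2% GloSensor reagent, given compound 30 min at room temperature. Luminescence read before and 20 min after 0.1 nM hNppA.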
Active calls of the source: *; ? = inconclusive; [ ] = another dose, or the depositor's remark. % is set by controls: 0 for no effect and ±100 for the full control effect; potency is the fitted concentration of half-maximal effect. The list is partial; the hit share may differ from the screen's.

NPR1 antag,SMILES
2.3%,CN1CCN(S(=O)(=O)c2ccc(F)cc2F)CC12CCNC(=O)CC2 (stereo not drawn)
3.5%,OC[C@@H]1CN(Cc2ccco2)C[C@H]1c1ccncc1
0.9%,CCO[C@H]1CN(C(=O)c2cnc(Nc3ccccc3)nc2)C[C@@H]1O
-1.5%[70.6 µM],CC(C)CNC(=O)c1ccc2c(c1)NC(C)(COCC1CC1)CO2 (stereo not drawn)
-0.6%[70.6 µM],CC(=O)NC1(C)CCCN(Cc2cc(-c3c(C)noc3C)cs2)C1 (stereo not drawn)
-0.4%,CCn1cc(CN2CCN(C(=O)CCc3ccccc3)CC2)ccc1=O
-21.2%[70.6 µM],Cn1cc(-c2ccccc2)c2nc(COc3ccc(Cl)cc3)cn2c1=O
-0.4%,CN(C)C[C@@H]1CN(Cc2ccccc2)C[C@H]1NC(=O)C1CCOCC1
-1.8%,COc1cccc(CC(=O)N2CCC3(CC2)NC(=O)N(c2ccccc2)N3)c1
?,O=C(NC1CCN(c2cc(C(F)(F)F)ncn2)CC1)c1ccc(F)cc1Cl
-2.1%,COCCNC(=O)[C@@H]1C[C@H](Oc2ccccc2)CN1C(=O)CCc1ccccc1
5.0%,CCN(CCS(=O)(=O)c1ccc(C)cc1)C(=O)c1csc(C(C)=O)c1
10.6%[70.6 µM],Cc1nc2c(c(-c3ccc(O)cc3)n1)CN(CCC(C)C)CCC2
3.2%,O=C(O)COc1ccccc1CN1CCN(Cc2cccs2)CC1
1.4%[70.6 µM],C=CCN(C)CC[C@@H]1CC[C@H](O)[C@@H](C(=O)NC2CC2)O1
-9.5%,COc1ccccc1C(=O)N1CCCCCC1c1nc(C)no1 (stereo not drawn)
3.2%,COCCNC(=O)[C@@H]1C[C@H](Oc2cccnc2)CN1S(=O)(=O)c1cccc(OC)c1
2.0%,O=c1[nH]c(N2CCOCC2)nc2c1CCN(Cc1ccc(Br)cc1)CC2
0.5%,Cc1noc(C)c1CC(=O)N1CC(=O)N(C2CCCCC2)CC(OCc2ccccc2)C1 (stereo not drawn)
0.7%,COCc1nn(CC(=O)N2CCc3sccc3C2)c(=O)n1-c1ccccc1
?,COc1ccc(OC)c(NC(=O)Cc2cccn2-c2ccc(Cl)cc2)c1
-0.2%,Cc1cc(C(=O)N[C@@H]2CN(S(C)(=O)=O)C[C@H]2CN(C)C)n[nH]1
0.0%,CCO[C@H]1C[C@@H](O)C12CCN(C(=O)c1cc(=O)[nH]c(=O)[nH]1)CC2
-9.2%,O=C(Nc1cccc2c1CCCC2)N1CCCC(OCc2cccnc2)C1 (stereo not drawn)
-23.1%,Cc1ccc(C(=O)N[C@H]2CO[C@H]3[C@@H]2OC[C@@H]3n2nnnc2Oc2ccc(-n3ccnc3)cc2)cc1
12.9%,CN1CCCCCCN(C(=O)c2ccoc2)[C@H]2CCC[C@H]2C1=O
2.3%,O=C(CN1C(=O)NC2(CCS(=O)(=O)CC2)C1=O)Nc1cccc(Cl)c1
0.8%,CCOc1ccc(S(=O)(=O)N2CCc3nc4cc[nH]n4c(=O)c3C2)cc1
-4.8%[70.6 µM],c1csc(CN2Cc3[nH]cnc3C[C@H]2c2nc(-c3ccc4c(c3)OCO4)no2)c1
-17.1%[70.6 µM],Cc1ccc(-c2nnc3ccc(NC4CCCCC4)nn23)nc1
0.8%,Cc1ccc(NC(=O)NCC2CCCN(Cc3ccncc3)C2)cc1 (stereo not drawn)
-1.5%,Cc1ccc(CC(=O)N2CCC3(CC2)N=C(c2ccc(C)cc2)NO3)cc1
-0.5%,O=C(c1ccc(CN2C(=O)NC3(CCS(=O)(=O)CC3)C2=O)cc1)N1CCCCC1
-21.5%,Cc1ccc(-c2ccc3nnc(CNC(=O)C(C)c4ccccc4)n3n2)cc1 (stereo not drawn)
-7.6%,O=C(NCc1ccccn1)c1ccc(Cn2ccn3nc4c(c3c2=O)CCCC4)cc1
0.1%[70.6 µM],O=C1CCCCCN1C1CCN(Cc2ccccn2)CC1
-17.4%,COc1cccc(CN2CCCC3(CCN(c4nc5ccccc5o4)C3)C2=O)c1 (stereo not drawn)
5.3%[70.6 µM],CC(=O)N1CCC(N2C[C@H](O)C[C@H]2c2nc(-c3cnccn3)no2)CC1
-0.4%[70.6 µM],CC1=NOC2(CCN([S+](=O)([O-])c3cccc(C(F)(F)F)c3)C2)C1 (stereo not drawn)
-10.4%,CCn1cc2c3c(cccc31)CN(C(=O)Cc1ccc(F)cc1)CC2
?,COc1ccc(CN2C[C@H](O)C[C@H]2c2nc(-c3ccc(OC)cc3)no2)cc1
-1.2%,O=C1CCC2(CCN(C/C=C/c3ccccc3)CC2)CN1CCCn1ccnc1
-2.3%,Cc1nccc(-c2ccccc2)c1C(=O)N1CCCC[C@H](N(C)C)C1
-7.0%[70.6 µM],Oc1ccccc1CN1CCNc2cc(Nc3cccnc3)ncc2C1
1.2%,CC(C)(C)C1CCC2(CC1)NC(=O)N(CC(=O)N1CCN(c3ccccc3)CC1)C2=O (stereo not drawn)
-3.4%[70.6 µM],Cc1ccc(-c2noc([C@@H]3C[C@@H](O)CN3Cc3nc4ccccc4n3C)n2)cc1F
-0.5%,CC(C)Oc1ccc2c(NC(=O)C3CCOCC3)nn(CC(F)(F)F)c2c1
16.8%,Cc1ccc(-c2nc(-c3nnn4c3COC(c3ccc(Cl)cc3)C4)no2)cc1F (stereo not drawn)
2.2%,O=C(N[C@@H]1CCOC[C@H]1OCc1cscn1)c1ccc(Cl)s1
7.3%[70.6 µM],COc1cccc(NC(=O)N[C@H]2[C@H](O)[C@@H](Oc3ccccc3)[C@@H]3OC[C@H]2O3)c1

Additional entries:
NPR1 antag,SMILES
-14.5%,O=C(NCC1Cn2cccc2C(=O)N1Cc1ccccc1)NC1CCCC1 (stereo not drawn)
14.3%,O=C(NCCc1ccc(Cl)cc1)c1nc(-c2ccsc2)c2ccccn12
1.3%,Cc1cc(C)nc(CNC(=O)c2cccc(CCC(C)(C)O)c2)n1
-0.5%,O=C(N[C@@H]1CN(C(=O)c2ccc3nc[nH]c3c2)CC[C@@H]1CO)C1CC1
-3.1%,Cc1ccc(NC(=O)O[C@@H]2CC[C@]3(C)C(CC[C@@H](O)[C@H]3CC(=O)NCc3ccccc3)[C@]2(C)CO)cc1 (stereo partly drawn)
-2.2%,O=C(O)c1cccc(CC2CCN(C(=O)c3ccc(Cn4cnnn4)cc3)C2)c1 (stereo not drawn)
-14.9%,O=C(c1cccnc1)N1CCC(c2cc(-c3ccc(F)cc3)n[nH]2)CC1
-5.3%,Cc1ccc(CNC(=O)CN2C(=O)NC3(CCCCC3)C2=O)cc1
-2.2%,CNC(=O)CC1CCOC2(CCN(S(=O)(=O)c3ccc(C#N)cc3)CC2)C1 (stereo not drawn)
2.5%,COCC1CN(C(C)=O)CC12CCN(C(=O)c1ccc(F)cc1F)CC2 (stereo not drawn)
-3.1%,OCC(O)c1cc2n(n1)CCN(Cc1ccccc1Cn1cccn1)C2 (stereo not drawn)
2.4%,CS(=O)(=O)N1CCC(N2C(=O)C3(CCCCC3)C2c2ccncc2)CC1 (stereo not drawn)
-1.5%,O=C(Cc1cccnc1)N1CCC2(CC1)CN(Cc1ccccc1)CC2CO (stereo not drawn)
-15.5%[70.6 µM],O=C1Nc2ccccc2O[C@H]2C[C@@H]1N(Cc1ccnc3ccccc13)C2
6.9%,CCN(C1CCOCC1)C1CN(C(=O)C(C)C)C1
1.3%,O=C1CCN(Cc2ccc(F)cc2F)CCCOCCN1
-1.5%,O=C(Nc1cccc(-c2nnc3n2CCCC3)c1)c1ccc2c(c1)OCO2
-8.6%,O=C(c1cccc(OC2CN(Cc3ccc(F)cc3Cl)C2)c1)N1CCOCC1
2.6%[70.6 µM],COCC(=O)N[C@H](C)c1onc(-c2cccnc2)c1C(=O)O
-4.0%,COCCOC1CCOC2(CCN(C(=O)Nc3ccc(OC)cc3)CC2)C1 (stereo not drawn)
4.1%,COc1ccc2[nH]c3c(c2c1)CCN(C)C31CCN(C(=O)c2ccc(C)nc2)CC1
-20.7%,COc1ccccc1CNC(=O)C1CCc2ncc(-c3ccsc3)n2C1 (stereo not drawn)
-8.2%[70.6 µM],Fc1ccc(-c2cnc([C@@H]3COCCN3Cc3csnn3)[nH]2)cc1
?,COc1cccc(NC(=O)Cn2c(C)ccc(NC(=O)Nc3ccc(C)cc3)c2=O)c1
-2.5%,Cc1ccc(CNC(=O)N2C[C@@H](C(N)=O)[C@H](c3n[nH]c(C)n3)C2)cc1
-23.6%,Cc1nc(-c2ccc(F)cc2)n(CC(=O)Nc2ccc(F)c(Cl)c2)c(=O)c1CCO
8.6%[70.6 µM],CC(C)N[C@H]1C[C@@H](Cc2cc(CCO)on2)C1(C)C
0.0%,C[C@@H]1CN(C(=O)CN(C)Cc2ccccc2F)C[C@]1(C)O
0.0%,COc1cc(C(=O)N2CCC(c3n[nH]c(=O)n3-c3ccccc3)CC2)cc(OC)c1OC
-3.3%,COc1cccc(-c2cn3c(n2)N(C(=O)c2cccs2)CCC3)c1

Random excerpt: five compounds from above.
NPR1 antag,SMILES
0.0%,C[C@@H]1CN(C(=O)CN(C)Cc2ccccc2F)C[C@]1(C)O
4.1%,COc1ccc2[nH]c3c(c2c1)CCN(C)C31CCN(C(=O)c2ccc(C)nc2)CC1
-23.6%,Cc1nc(-c2ccc(F)cc2)n(CC(=O)Nc2ccc(F)c(Cl)c2)c(=O)c1CCO
0.0%,COc1cc(C(=O)N2CCC(c3n[nH]c(=O)n3-c3ccccc3)CC2)cc(OC)c1OC
-8.2%[70.6 µM],Fc1ccc(-c2cnc([C@@H]3COCCN3Cc3csnn3)[nH]2)cc1

Of the compounds above, these have a furan ring, fused or not:
NPR1 antag,SMILES
3.5%,OC[C@@H]1CN(Cc2ccco2)C[C@H]1c1ccncc1
12.9%,CN1CCCCCCN(C(=O)c2ccoc2)[C@H]2CCC[C@H]2C1=O

Continued:
NPR1 antag,SMILES
-22.7%,COCc1nc(-c2ccc(OC3CN(C(=O)c4ccc(OC)nc4)C3)cc2)no1
-1.0%[70.6 µM],CN(C)Cc1cc(C[C@@H]2C[C@H](NCc3ccccc3O)C2(C)C)no1
1.3%,COc1ccc(-c2nn(-c3ccccc3C)cc2CN2CCCC(C)(O)C2)cc1F (stereo not drawn)
-5.8%,Cn1c(CCNC(=O)C2CCCN(C(=O)c3ccccc3)CCC(=O)NCC2)nc2ccccc21 (stereo not drawn)
-18.6%[70.6 µM],COc1ccc(NC(=O)N[C@@H]2C=C[C@@H](c3c(C)nn(-c4ccccn4)c3C)C2)cc1
2.51µM*,COc1ccc(NC(=O)N2CCc3c(C(=O)NC(C)C)cccc32)cc1
-14.1%,O=C(Cn1cccc1-c1nc(-c2ccccc2)no1)Nc1ccc2c(c1)OCCO2
-5.8%,O=C(c1ccc(-c2ccccc2)cc1)N1C[C@@H]2C[C@H](C1)c1ccc(NS(=O)(=O)c3cccc(F)c3)c(=O)n1C2
3.4%[70.6 µM],O=C(Nc1ccc(Cl)cc1Cl)c1cnn2ncccc12
-28.1%,O=C(c1ccncc1)N1CCC(c2cc(-c3ccc(F)cc3)n[nH]2)CC1
2.0%,CC(=O)N(C1CC1)C1CCOC2(CCN(C(=O)CCCc3ccccc3)CC2)C1 (stereo not drawn)
-3.3%,O=C(c1ccncc1)N1CCCCCC1CN1CCCC1 (stereo not drawn)
-15.4%,Cc1ccc(C(=O)N2CCCC3(CC(Cc4ccccc4)=NO3)C2)cc1 (stereo not drawn)
-20.3%,Cc1ccc(NC(=O)N2CCc3c(C(=O)NCCc4ccccn4)cccc32)cc1
-0.6%,CC(C)=CC(=O)N1CC[C@H](NC(=O)Nc2ccc(F)cc2F)[C@H]1C(=O)N[C@@H](Cc1cccs1)C(N)=O
8.8%,COCCN(Cc1nc(-c2cc3c(cc2Cl)OCO3)oc1C)C(C)C
7.3%,CN1CCN(c2nc3c(s2)CN(C(=O)c2ccccc2)CC3)CC1
-1.9%[70.6 µM],CC(=O)N1CCC(NC2(Cc3cc(CN4CCOCC4)on3)COC2)CC1
7.3%,O=C(NCC1CCOCC1)Nc1ccc(Cl)cc1
0.6%,CCCNC(=O)Cn1nc2n(c1=O)CCCCC2
3.0%,CCO[C@H]1CN(C(=O)COc2ccc(Cl)cc2C)C[C@@H]1O
0.9%,COc1ccccc1CN1Cc2cc(NC(=O)c3ccc([N+](=O)[O-])cc3)ccc2OC(C)C1=O (stereo not drawn)
0.7%,O=C(c1n[nH]c(=O)c2ccccc12)N1CCN(C(=O)N2CC3CC(C2)[C@H]2CCCC(=O)N2C3)CC1 (stereo partly drawn)
-1.1%[70.6 µM],COC(=O)c1ccc(CN2C(=O)[C@@H]3C[C@@H](O)CN3C3(CN(CC(C)C)C3)C2=O)cc1
1.0%,Cc1cccc(C(=O)NCCC2CCN(C(=O)Nc3ccc(F)cc3)CC2)c1
3.1%,CNC(=O)[C@@H]1C[C@H](Oc2ccccc2)CN1C(=O)CCc1nc2ccccc2[nH]1
1.5%,CCCCNC(=O)CCN(CCCOC)C(=O)c1cc(C)oc1C
-1.9%,O=C(O)[C@H]1C[C@@H](C(=O)NCc2ccncc2)CN(C(=O)CC2CCCC2)C1
-16.7%,Cc1ccc(C2=NC3(CCN(C(=O)c4cccc(N(C)C)c4)CC3)ON2)cc1
4.4%,CCCCc1nn(CC(=O)N2CCCC2c2nc(C3CC3)no2)c(=O)n1CC (stereo not drawn)
1.1%,CN1CCN(c2nc3c(c(=O)[nH]2)CCN(Cc2ccc(Cl)c(F)c2)CC3)CC1
?,O=C(c1ccc(CCC2COc3ccccc3O2)cc1)N1CCCCC1 (stereo not drawn)
